# Beta cell apopt: inhibitors of cytokine-induced beta cell apoptosis, primary screen, luminescence; INS-1E cytokine-induced death, ATP luminescence, 48 h; percent of positive-control rescue, neutral wells zero; 300,000 compounds, 0.8% hits; protection from apoptosis, % (no concentration beside the values); AID 435005, 2010;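 active = all replicates at 75% or more, or half of them and the mean; inconclusive = half reach 75% but not the mean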;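 note: 0% = cytokine-treated negative control wells and 100% = positive control rescue; higher means more ATP so stronger rescue from cytokine killing; wells of about 40 µL received 100 nL stock; the first replicate is given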
# Beta2AR agonist: beta2AR agonists driving receptor internalization, primary screen, cell-based, FAP fluorogen, flow cytometry; response, % (test concentration not listed); AID 504454, 2011; Am2.2-beta2AR cells; reference of the scale not given here; 340,000 compounds, 0.43% hits; Beta-2 adrenergic receptor (Homo sapiens), P07550;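 active = response above a set limit, near 3 SD of response in nonfluorescent compounds, cut at about 42% in these data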;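 note: stock transfer was 100 nL into about 11 µL; a reference agonist was the positive control; negative values mostly stem from fluorescent compounds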
# Target sequence (P07550 whole entry, looked up): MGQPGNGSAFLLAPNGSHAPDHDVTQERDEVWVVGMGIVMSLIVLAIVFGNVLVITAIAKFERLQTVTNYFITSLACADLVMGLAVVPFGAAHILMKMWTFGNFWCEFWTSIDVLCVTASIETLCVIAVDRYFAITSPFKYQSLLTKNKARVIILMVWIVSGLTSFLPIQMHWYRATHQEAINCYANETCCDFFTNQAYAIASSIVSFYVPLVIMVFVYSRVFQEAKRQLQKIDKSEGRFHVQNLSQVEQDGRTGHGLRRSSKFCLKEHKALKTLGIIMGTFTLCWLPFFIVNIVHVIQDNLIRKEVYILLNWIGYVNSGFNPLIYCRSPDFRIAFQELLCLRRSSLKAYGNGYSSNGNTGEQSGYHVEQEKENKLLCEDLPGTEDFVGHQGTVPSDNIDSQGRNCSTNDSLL
# Ecoli rRNA inh: reduced GFP signal of wild-type E. coli, primary screen, bacterial rRNA inhibitor project, GFP/RFP fluorescence, OD600, single point; 350,000 compounds, 1.6% hits; E. coli WT GFP vs humanized-ribosome RFP mutants, 24 h; active compounds read low; DMSO median 0, no signal -100; GFP signal change (wild-type ribosome), % (test concentration not listed);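 active = significant combined selectivity score with lowered wild-type GFP, culture density cut under 30%, mutant RFP and density less affected; inactive = any of these conditions unmet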; note: one replicate is shown; some compounds called inactive have numbers as strong as hits
# Bfl-1 A1 inh: caspase 3/7 activation in MEF A1-2A-BIM cells, primary screen, A1 inhibitor project, cell-based, luminescence, HTS | caspase activation, % (concentration not given with the values) | Caspase-Glo 3/7 luminescence, 3 h; percent of clofoctol response, vehicle zero | AID 2462, 2010 | 330,000 compounds, 0.066% hits;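 active = over half of replicate activation scores above 10%, or exactly half above 10 with the replicate mean above 10; inconclusive = replicate mean below 10 yet half the replicates above 10; inactive = over half of replicates below 10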;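 note: wells of about 30 µL received 50 nL stock; many hits fall short of the cut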
# LANA-H2B inh: blockers of LANA interaction with H2A/H2B – biochemical, FP readout, HTS, primary screen | AID 2629, 2010 | 320,000 compounds, 0.6% hits | Protein LANA1 (Human herpesvirus 8 type P (isolate GK18)), Q9QR71 | inhibition, % (concentration not given with the values) | cell-free LANA-H2A/H2B peptide, fluorescence polarization; in the data active = inhibition mostly above about 10%, no sharp cut-off; inactive = mostly below about 6.7%;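 note: stock transfer was 7.5 nL into about 10 µL; 0% = median of vehicle wells and 100% = median of positive control wells; one replicate is shown; the record names a cut of 25% in any replicate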
# Calb FLC: C. albicans growth inhibition with fluconazole, primary screen, CaCi-2 strain, Alamar Blue fluorescence; C. albicans CaCi-2 (fluconazole-resistant clinical isolate) + fluconazole, 48 h; growth inhibition, % (concentration not given with the values); 300,000 compounds, 0.57% hits; AID 1979, 2009;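 active = most replicates above 75%; inconclusive = exactly half above 75%; inactive = most below 75%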;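 note: all wells also contain fluconazole at 8 µg/ml as a sub-toxic cotreatment; 0% = median of DMSO wells and 100% = median of geldanamycin control wells; wells of about 8 µL received 7.5 nL stock; the first replicate is given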
# ALR H2O2 inh: inhibitors of human ALR sulfhydryl oxidase, primary screen, biochemical, H2O2 detection, HRP-luminol luminescence, single point; FAD-linked sulfhydryl oxidase ALR (Homo sapiens), P55789; purified ALR, DTT oxidation; inhibition, % (test concentration not listed); 290,000 compounds, 3.8% hits; AID 485317, 2010;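 active = mean and each replicate at 75% or more; inconclusive = only one of the two met; inactive = neither met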;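 note: stock transfer was 7.5 nL into about 7.5 µL; 0% = neutral wells and 100% = wells with inactivated enzyme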
# Target sequence (P55789 whole entry, looked up): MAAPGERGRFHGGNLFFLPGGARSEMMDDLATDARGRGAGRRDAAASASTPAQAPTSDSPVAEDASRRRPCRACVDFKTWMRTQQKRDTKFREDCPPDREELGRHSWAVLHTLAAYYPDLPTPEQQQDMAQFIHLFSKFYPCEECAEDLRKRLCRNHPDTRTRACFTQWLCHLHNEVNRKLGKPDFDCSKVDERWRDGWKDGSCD
# T cruzi repl: inhibitors of intracellular T. cruzi growth, primary screen, luminescence, NIH3T3 host cells. inhibition, % (concentration not given with the values). 300,000 compounds, 1.4% hits. AID 1885, 2009. T. cruzi beta-gal in NIH3T3, 90 h;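 active = mean inhibition across valid replicates above about 55%, limit read from the data; inconclusive = mean below that limit but half or more replicates reach it; inactive = mean below it, under half of replicates reach it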;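 note: signal also drops with host cell toxicity which is not excluded here; 0% = plate median of DMSO wells and 100% = zero luminescence signal; higher percent means less beta-gal luminescence so fewer parasites; stock transfer was 50 nL into about 50 µL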
# Ecoli rRNA inh OD600: recorded beside Ecoli rRNA inh, whose call it bears; OD600 change, %; measured here: OD600 growth;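 optical density of the mix in the first replicate; 0 = DMSO median and -100 = no signal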
# Ecoli rRNA inh RFP: also measured in Ecoli rRNA inh; calls as there; RFP signal change, %; measured here: RFP humanized mutant strains;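 first replicate; 0 = DMSO median and -100 = no signal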
# Starred values were filed as active, the others as inactive; u = inconclusive; x = no result given. Only part of the results is shown. The share of hits here may be higher or lower than overall.
SMILES,Beta cell apopt,Beta2AR agonist,Ecoli rRNA inh,Ecoli rRNA inh OD600,Ecoli rRNA inh RFP,Bfl-1 A1 inh,LANA-H2B inh,Calb FLC,ALR H2O2 inh,T cruzi repl
CCOc1ccc(N(CC(=O)Nc2cccnc2)S(=O)(=O)c2ccc(C)cc2)cc1,x,-11.3,6.1,17.3,-0.7,1.1,-2.4,-10.0,-13.1,-3.3
CCn1c(C)nnc1SCC(=O)NC1CCCCCC1,-3.8,2.3,12.8,11.4,1.3,0.4,-4.1,6.1,4.2,-10.3
CCN(CC(=O)c1c(N)n(C)c(=O)n(C)c1=O)c1cccc2ccccc12,28.3,20.6,x,x,x,1.5,1.0,13.8,13.8,1.4
S=C(NCc1ccc(Cl)cc1)Nc1ccncc1,59.6,-0.4,-38.4,-72.0,-9.7,-0.4,-0.3,-3.8,5.8,-14.1
COC(=O)C1CCN(C(=O)CSc2nnc(-c3ccccc3)o2)CC1,-6.2,5.2,1.1,3.0,0.6,0.3,-10.6,7.5,6.4,-6.5
O=C(CSc1nccn1-c1ccc(Cl)cc1)N1CCCc2ccccc21,2.7,-4.2,-55.0,-76.3,-23.5,0.5,0.7,-5.7,-23.2,18.9
CN(C)CCn1c(SCc2ccccc2C#N)nc2c(sc3ccccc32)c1=O,x,1.1,-8.5,-0.4,3.4,0.3,5.3,-24.0,x,5.5
Cc1ccc(S(=O)(=O)N(C)c2ccc(OCC(=O)Nc3nnc(C4CC4)s3)cc2)cc1,x,-8.2,-4.2,0.0,7.6,x,x,63.1*,x,-4.3
CCOc1cc(S(=O)(=O)NCc2cccs2)ccc1Cl,-1.2,-2.7,x,x,x,1.3,2.4,-3.2,-2.3,1.7
CC(C)c1cc(C(=O)N/N=C/c2ccoc2)cs1,-2.6,3.9,-4.5,4.0,0.9,0.0,1.7,-1.0,-1.0,-36.9
O=[N+]([O-])c1cccc(-c2nnc(-c3ccccc3F)o2)c1,-9.6,-14.9,0.5,8.0,-0.6,0.9,2.2,1.8,-9.2,-9.3
c1ccc(CCn2nnnc2CN2CCCc3ccccc32)cc1,5.0,-11.4,x,x,x,-0.1,-3.8,-3.5,88.8*,-1.6
COc1cccc(OC(C)c2ccnc3nc(/N=C/N(C)C)nn23)c1 (stereo not drawn),-6.4,17.6,x,x,x,1.9,2.2,-0.6,-17.3,-1.8
Cc1ccc2c(c1)N(CC(=O)N1CCN(c3ccccc3)CC1)C(=O)C(C)O2 (stereo not drawn),0.1,-2.1,-4.1,-5.3,0.9,-0.3,2.0,-0.7,15.4,9.6
CCOC(=O)COc1ccc(S(=O)(=O)N2CCN(C(=O)OCC)CC2)cc1,-4.1,-2.3,11.1,6.3,2.8,1.1,-4.0,4.1,-5.4,-3.8
CCOc1ccc2[nH]c(=O)c(CN(Cc3nnnn3Cc3ccco3)C3CCCCC3)cc2c1,-5.2,-2.2,x,x,x,0.4,3.6,-2.3,-43.3,-2.9
O=S(=O)(Cc1cc(Cl)nc(-c2cccnc2)n1)c1ccccc1,3.5,23.8,x,x,x,u,-8.8,12.2,9.8,-15.9
COc1ccc(-c2nn(C)c(=O)c3ccccc23)cc1NC(=O)Cn1nc(C)c2ccccc2c1=O,5.4,48.3*,6.6,2.5,0.9,-0.2,-7.9,-4.1,2.9,73.6*
CC(=O)N1CCSc2ccc(S(=O)(=O)NCCc3cccc(C)c3)cc21,4.6,-7.5,0.5,-14.4,8.4,0.2,4.2,-7.8,-5.2,10.3
COc1ccc(/C=N/Nc2nc(C)cc(-c3ccccc3)n2)cc1OC,6.9,10.1,-11.1,-8.1,-0.8,0.0,-2.3,-3.2,x,-7.1
O=C(COC(=O)CCNS(=O)(=O)c1ccc2c(c1)OCCO2)NC1CCCc2ccccc21 (stereo not drawn),-1.4,4.2,x,x,x,-0.3,0.9,5.4,-4.6,-0.1
CCCCC(=O)NC(=S)NNS(=O)(=O)c1ccccc1,-3.6,1.4,x,x,x,0.6,-8.8,-3.2,36.6,-12.3
CCOC(=O)c1ccc(Nc2cc(C)nc(N3CCOCC3)n2)cc1,0.9,15.6,x,x,x,-0.3,4.6,-5.4,-0.9,45.9
O=C(CCN1C(=O)/C(=C/c2ccc(F)cc2)SC1=S)NC1C=CS(=O)(=O)C1 (stereo not drawn),-17.5,2.4,9.0,9.9,1.7,1.9,5.7,-5.7,x,-8.1
CC(C)CN(CCOc1cccc(N2C(=O)C3=C(CCCC3)C2=O)c1)CC(C)C,5.4,-1.5,x,x,x,1.3,-0.1,-8.6,x,10.1

# Shown as tab-separated lines: part of the list above
compound	Beta cell apopt	Beta2AR agonist	Ecoli rRNA inh	Ecoli rRNA inh OD600	Ecoli rRNA inh RFP	Bfl-1 A1 inh	LANA-H2B inh	Calb FLC	ALR H2O2 inh	T cruzi repl
Cc1ccc(S(=O)(=O)N(C)c2ccc(OCC(=O)Nc3nnc(C4CC4)s3)cc2)cc1	x	-8.2	-4.2	0.0	7.6	x	x	63.1*	x	-4.3
CCOc1cc(S(=O)(=O)NCc2cccs2)ccc1Cl	-1.2	-2.7	x	x	x	1.3	2.4	-3.2	-2.3	1.7
CC(C)c1cc(C(=O)N/N=C/c2ccoc2)cs1	-2.6	3.9	-4.5	4.0	0.9	0.0	1.7	-1.0	-1.0	-36.9
O=[N+]([O-])c1cccc(-c2nnc(-c3ccccc3F)o2)c1	-9.6	-14.9	0.5	8.0	-0.6	0.9	2.2	1.8	-9.2	-9.3

# (more compounds)
SMILES,Beta cell apopt,Beta2AR agonist,Ecoli rRNA inh,Ecoli rRNA inh OD600,Ecoli rRNA inh RFP,Bfl-1 A1 inh,LANA-H2B inh,Calb FLC,ALR H2O2 inh,T cruzi repl
O=C(COC(=O)c1ccccn1)Nc1cccc(Cl)c1Cl,4.3,8.1,x,x,x,1.2,-6.4,11.7,-1.1,-9.4
Cc1ccc(S(=O)(=O)N2CCN(CC(=O)N/N=C\c3ccc(O)c(O)c3)CC2)cc1,-1.9,-2.0,3.5,-1.4,-1.4,-0.2,9.0,6.8,98.8*,-14.5
COc1cc(C(=O)OCC(=O)NCC2CCCCC2)ccc1OCC(C)C,0.6,-5.7,11.2,15.4,2.5,-0.9,3.1,-7.8,5.4,-4.7
O=[N+]([O-])c1cccc(-c2ccc(/C=N/NC(=S)Nc3ccccc3)o2)c1,9.9,5.6,x,x,x,-1.8,-1.0,-4.7,-9.5,55.7*
CC(=O)c1cccc(NC(=O)c2ccc(C)c(S(=O)(=O)N3CCOCC3)c2)c1,2.1,-6.3,-8.2,-11.6,-0.4,0.8,0.2,1.4,-3.5,0.5
O=C1CCc2cc(S(=O)(=O)Nc3cccc(F)c3)cc3c2N1CC3,1.8,22.1,-3.5,-8.9,0.0,1.8,-3.4,-4.6,1.8,-4.4
Fc1ccc(NC(=S)NC2CC3CCCC(C2)N3Cc2cccs2)cc1 (stereo not drawn),7.2,-4.2,8.5,-2.9,-4.3,0.7,-2.7,-24.1,-4.2,13.9
CN(C)CCCNC(=O)/C(=C\c1ccc(-c2cccc([N+](=O)[O-])c2)o1)NC(=O)c1ccccc1,6.6,2.2,12.5,11.5,-0.1,-0.5,-0.5,2.5,10.9,2.2
O=C(COC(=O)CCCNC(=O)c1ccc(Cl)cc1)NC1CC1,-6.5,-2.7,x,x,x,-0.1,0.2,4.0,43.9,1.2
Nc1nc(SCC(=O)Nc2ncc(C(F)(F)F)cc2Cl)n[nH]1,-2.4,-6.9,1.0,3.2,0.9,-0.1,-3.0,-11.8,10.5,-8.7
Cc1ccc(N(CC(=O)NC2CCCCC2)C(=O)CNC(=O)c2ccco2)c(C)c1,-1.7,-9.9,6.3,-3.7,3.4,0.3,0.7,1.5,0.9,4.1
COc1ccccc1C(=O)Nn1cnc2ccccc2c1=O,x,11.9,5.4,0.4,-1.2,-0.9,5.2,-3.6,-7.6,-13.8
O=C(Nc1cccc(S(=O)(=O)NC2=NCCC2)c1)c1cc(Cl)ccc1[N+](=O)[O-],x,-3.1,x,x,x,1.1,1.5,-7.7,-6.1,-2.1
O=C1CC(c2c[nH]c3ccccc23)C(=O)N1c1ccccc1 (stereo not drawn),-0.8,4.7,x,x,x,0.3,0.7,30.5,-7.3,-6.3
Cc1cccn2c(=O)nc(SCC(=O)NC3CCCCC3)nc12,0.7,-5.7,10.8,6.8,-1.7,0.4,-0.5,5.0,0.1,-0.2
COCCCNC(=O)c1nc2ccccc2c(=O)n1NC(=O)Nc1c(Cl)cccc1Cl,-0.6,9.4,7.8,12.3,-1.0,-1.6,1.9,-1.3,0.7,-0.2
CN(CC(=O)NC1CC1)S(=O)(=O)c1cc(Cl)ccc1Cl,-3.5,-4.2,18.2,15.9,5.0,-1.1,-10.8,-16.4,-8.7,-21.8
CCOc1ccc(C(=O)CCC(=O)NC(C)C(=O)OC)cc1 (stereo not drawn),-1.5,12.9,10.6,11.6,8.6,-0.5,-3.2,7.9,x,4.3
O=C(NCCc1ccc(F)cc1)c1cccc2c1C(=O)c1ccc(N3CCC(Cc4ccccc4)CC3)cc1S2(=O)=O,5.2,-48.1,x,x,x,0.6,3.0,x,-5.0,x
CC(C)(C)C1CCC(=NNS(=O)(=O)c2ccc(Br)cc2)CC1 (stereo not drawn),-0.2,3.0,x,x,x,0.4,3.0,2.6,9.4,-0.2
CCN(CC)S(=O)(=O)c1cc([N+](=O)[O-])ccc1N=Nc1c(O)[nH]c2ccccc12,-3.8,5.6,4.0,2.7,-3.6,-0.4,-0.1,0.8,-47.3,0.0

# One compound at a time (already shown). Order of values: Beta cell apopt, Beta2AR agonist, Ecoli rRNA inh, Ecoli rRNA inh OD600, Ecoli rRNA inh RFP, Bfl-1 A1 inh, LANA-H2B inh, Calb FLC, ALR H2O2 inh, T cruzi repl
# COCCCNC(=O)c1nc2ccccc2c(=O)n1NC(=O)Nc1c(Cl)cccc1Cl in the list: -0.6, 9.4, 7.8, 12.3, -1.0, -1.6, 1.9, -1.3, 0.7, -0.2
# CN(C)CCCNC(=O)/C(=C\c1ccc(-c2cccc([N+](=O)[O-])c2)o1)NC(=O)c1ccccc1 in the list: 6.6, 2.2, 12.5, 11.5, -0.1, -0.5, -0.5, 2.5, 10.9, 2.2

# Assay outcomes as filed in PubChem BioAssay.
